High-throughput results (PubChem)
TRPC4 agonist: activators of mouse TRPC4 channel, primary screen, Fluo4 calcium, HEK293 TRPC4beta/mu-opioid cells | 310,000 tested, 0.49% active | B-score at 10 µM | Fluo4 calcium fluorescence; stronger effect = higher value | Short transient receptor potential channel 4 (Mus musculus), Q9QUQ5 | AID 2237, 2010;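 active = B-score above 5 SD of library B-scores, and initial fluorescence ratio not above library mean plus 5 SD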;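 note: positive B-score marks a calcium rise read as TRPC4 activation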
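System – HEK293 cells stably co-expressing mouse TRPC4beta and mu-opioid receptor · Signal – Fluo4 calcium-sensitive dye fluorescence, kinetic, 1 Hz baseline · Benchmarks – buffer (low) and maximal DAMGO (high) · Read-out – B score of integrated fluorescence ratio per well · Incubation – dye loading 45 min room temperature, 110 s kinetic read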
KCNK9 block: KCNK9 potassium channel inhibitors, primary screen, HEK293 cells, thallium flux. B-score at 10 µM. FluxOR thallium flux fluorescence; stronger effect = lower value. 310,000 tested, 1.2% active. Potassium channel subfamily K member 9 (Homo sapiens), Q9NPC2. AID 488922, 2010;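 active = ratio B-score over 3 SD below the library mean, with starting fluorescence within 5 SD of its mean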;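 note: negative B-score means less thallium flux so channel inhibition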
Target sequence (Q9NPC2 whole entry, looked up): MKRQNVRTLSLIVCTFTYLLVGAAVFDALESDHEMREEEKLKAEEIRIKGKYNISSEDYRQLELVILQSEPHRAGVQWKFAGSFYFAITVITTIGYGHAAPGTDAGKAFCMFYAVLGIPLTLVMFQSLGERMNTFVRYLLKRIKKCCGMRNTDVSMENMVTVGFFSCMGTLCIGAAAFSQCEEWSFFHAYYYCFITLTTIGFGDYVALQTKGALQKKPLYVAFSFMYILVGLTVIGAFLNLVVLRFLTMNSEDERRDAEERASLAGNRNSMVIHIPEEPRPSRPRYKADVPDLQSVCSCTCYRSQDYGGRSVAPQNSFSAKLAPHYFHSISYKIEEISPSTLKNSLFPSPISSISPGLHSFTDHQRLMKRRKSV
TRPC4 inh: inhibitors of mouse TRPC4 channel, primary screen, Fluo4 calcium, HEK293 TRPC4beta/mu-opioid cells; DAMGO-evoked Fluo4 calcium flux; stronger effect = lower value; B-score at 10 µM; 300,000 tested, 0.39% active; AID 2247, 2010;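 active = B-score over 3 SD under the library average, no early fluorescence shift, positive overall ratio signal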
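Test system – stable TRPC4beta/mu-opioid receptor HEK293 cells · Probe or stimulus – DAMGO, a submaximal dose followed by a maximal one · Dosing – one concentration per compound · Signal – Fluo4 calcium fluorescence by kinetic imaging, 5 s 1 Hz baseline · Evaluation – per-well B score of integrated baseline-normalized Fluo4 ratio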
Platelet DG rel: inhibitors of platelet dense granule secretion, primary screen, cell-based, MLPCN, human platelets. human platelet-rich plasma, SFLLRN dense granule ATP release, luminescence. inhibition, %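 (compounds screened at 7.5 µM in platelet-rich plasma)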. 300,000 tested, 0.22% active;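 active = mean replicate score, as percent of positive control, at or above 50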
KCNK3 block: human KCNK3 channel inhibitors, primary screen, CHO cells, FluxOR thallium flux, B-score | Potassium channel subfamily K member 3 (Homo sapiens), O14649 | FluxOR fluorescence; stronger effect = lower value | B-score at 10 µM | 340,000 tested, 0.84% active | AID 602410, 2012;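 active = B-score under library mean minus 4 SD, starting fluorescence ratio at most library mean plus 5 SD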;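 note: more negative B-score means stronger inhibition of thallium flux through KCNK3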
Target sequence (O14649 whole entry, looked up): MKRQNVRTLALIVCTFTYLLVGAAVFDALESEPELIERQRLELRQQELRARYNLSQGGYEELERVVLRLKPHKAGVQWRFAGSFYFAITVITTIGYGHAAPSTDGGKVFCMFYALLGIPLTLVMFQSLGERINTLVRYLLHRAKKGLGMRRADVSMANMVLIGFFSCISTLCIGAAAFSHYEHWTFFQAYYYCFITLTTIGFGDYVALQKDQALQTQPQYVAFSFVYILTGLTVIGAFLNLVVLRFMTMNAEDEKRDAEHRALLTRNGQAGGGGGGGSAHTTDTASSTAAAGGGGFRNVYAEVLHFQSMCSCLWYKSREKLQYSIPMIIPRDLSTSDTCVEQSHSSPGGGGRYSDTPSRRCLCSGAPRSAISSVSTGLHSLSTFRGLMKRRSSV
KCNQ1 pot: potentiators or activators of KCNQ1 channel, primary screen, cell-based, thallium flux, high-throughput. 310,000 tested, 0.35% active. B-score at 10 µM. CHO-K1 KCNQ1, thallium flux FluxOR fluorescence; stronger effect = higher value;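 active = fluorescence ratio B-score, a plate-corrected score, at least three library SD, with initial intensity B-score within 5 SD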
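System: CHO-K1 cells stably expressing KCNQ1 / Medium: assay buffer for compound exposure, DMSO matched across wells / Reagent: thallium- and potassium-containing depolarizing buffer / Compound: one concentration, matched DMSO / Incubation: 20 min compound pretreatment at room temperature / Measured by: kinetic FluxOR fluorescence, 10 s baseline plus 110 s post-stimulus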
PolyA inh: polyadenylation inhibitors in yeast reporter cells, primary screen, luminescence, S. cerevisiae; S. cerevisiae SKY197-pL101 polyadenylation reporter, beta-gal luminescence; efflux-impaired pdr1/pdr3 knockout yeast; score 100 = 6 SD above DMSO; AID 1875, 2009; 300,000 tested, 0.02% active; calls only at 12 µM;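 active = lowest replicate activity score at least 50, where 100 means six control SD above control mean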;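 note: yeast exposed to compound for 9 h at 30 °C; higher score means more reporter readthrough which indicates perturbed polyadenylation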
hERG protect: hERG rescue from dofetilide block, primary screen, cell-based, CHO-hERG, FluxOR thallium flux, dofetilide IC70; Voltage-gated inwardly rectifying potassium channel KCNH2 (Homo sapiens), Q12809; dofetilide IC70 present; activation (rescue from dofetilide block), less the hit threshold, % at 10 µM; 310,000 tested, 0.51% active;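 active = activation above the mean of controls blocked by dofetilide plus 5 SD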;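 note: thallium influx through hERG after potassium depolarization seen as dye fluorescence rise; in these data hits start at about 4.7%; inactives centre near -7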
TRPC4 PAM: positive allosteric modulators of TRPC4, primary screen, cell-based, mouse TRPC4beta, HEK293 mu-opioid, Fluo-4 calcium; Short transient receptor potential channel 4 (Mus musculus), Q9QUQ5; DAMGO EC20, Fluo-4 Ca2+ flux; stronger effect = higher value; B-score at 10 µM; 310,000 tested, 0.42% active; AID 2227, 2009;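 active = B-score of calcium response area above 5 SD of library B-scores, with initial fluorescence ratio within 5 SD of library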;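 note: B-score of integrated fluorescence ratio over time as area under calcium response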
KCNQ1 inh: inhibitors of human KCNQ1 channel, primary screen, cell-based, thallium flux, high-throughput; B-score at 10 µM; CHO-K1 KCNQ1, FluxOR thallium flux fluorescence; stronger effect = higher value; AID 2642, 2010; Potassium voltage-gated channel subfamily KQT member 1 (Homo sapiens), P51787; 310,000 tested, 1.3% active;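 active = compounds whose thallium flux B-score, printed positive for inhibition, exceeds three library SD while starting fluorescence stays within three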;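 note: channel opened by potassium depolarization with thallium stimulus after 20 min compound exposure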
Active calls of the source: *; i = inactive; x = not tested or not shown.

The opening two records, to show the layout:
Every second line gives: TRPC4 agonist	KCNK9 block	TRPC4 inh	Platelet DG rel	KCNK3 block	KCNQ1 pot	PolyA inh	hERG protect	TRPC4 PAM	KCNQ1 inh
[1] COc1ccc(/C=C(/Sc2nnc(-c3ccc(Cl)cc3)o2)C(=O)O)cc1
→ i	i	i	0	i	i	i	-13	i	i
[2] CC(C)NC(=O)C(OC(=O)c1ccccc1)C(OC(=O)c1ccccc1)C(=O)O (stereo not drawn)
→ i	i	i	-4	i	i	i	-9	i	i

This part in full, previewed entries included:
Every second line gives: TRPC4 agonist	KCNK9 block	TRPC4 inh	Platelet DG rel	KCNK3 block	KCNQ1 pot	PolyA inh	hERG protect	TRPC4 PAM	KCNQ1 inh
[1] COc1ccc(/C=C(/Sc2nnc(-c3ccc(Cl)cc3)o2)C(=O)O)cc1
→ i	i	i	0	i	i	i	-13	i	i
[2] CC(C)NC(=O)C(OC(=O)c1ccccc1)C(OC(=O)c1ccccc1)C(=O)O (stereo not drawn)
→ i	i	i	-4	i	i	i	-9	i	i
[3] O=C(Nc1ccc2oc(=O)ccc2c1)c1cccnc1Cl
→ i	i	i	2	i	i	i	-6	i	i
[4] N#C/C(=C/c1ccccc1OCc1ccc(F)cc1)c1ccc(C(=O)O)cc1
→ i	i	i	-6	i	i	i	-10	i	i
[5] COc1ccc2ccc3ccc(OC)c(OC(C)=O)c3c2c1
→ x	x	x	x	i	x	x	x	x	x
[6] O=C(NCc1ccco1)c1ccc(Cn2c(=O)c3ccccc3n(Cc3cccc(F)c3)c2=O)cc1
→ i	i	i	-9	i	i	i	-8	i	i
[7] CC(C)C(C(=O)N1CCOCC1)N1C(=O)c2ccccc2C1=O (stereo not drawn)
→ i	i	i	3	i	i	i	-1	i	i
[8] CCOC(=O)C1CCCN(c2nc3ccccc3nc2C(C#N)C(=O)NCc2ccccc2)C1 (stereo not drawn)
→ i	i	i	1	i	i	i	-7	i	i
[9] CCOc1ccc2nc(NC(=O)CN3C(=O)NC4(CCCC4)C3=O)sc2c1
→ i	i	i	-14	i	i	i	-12	i	i
[10] O=C(Nc1ncc2c(n1)-c1ccccc1CC2)c1ccc(F)cc1
→ i	i	i	-5	i	i	i	-9	i	i
[11] Oc1ccc(Nc2ncnc3ccccc23)cc1
→ i	i	i	-3	i	i	i	-4	i	i
[12] O=C(/C=C/c1ccccc1Cl)NCc1ccco1
→ i	i	i	-5	i	i	i	-8	i	i
[13] CCN(CC)CCN(C(=O)c1cc2ccccc2cc1OC)c1nc2ccc(F)cc2s1
→ i	i	i	-2	i	i	i	-17	i	i
[14] O=C(Nc1ccc2oc(=O)ccc2c1)c1ccc(-c2cccc(Cl)c2)o1
→ i	i	i	33	i	i	i	-7	i	i
[15] O=C(CSc1nc(O)cc(=O)n1-c1ccccc1)Nc1ccc(Br)cn1
→ i	i	i	-1	i	i	i	-24	i	i
[16] CC(=O)n1cc(C(C[N+](=O)[O-])SCCN)c2ccccc21 (stereo not drawn)
→ i	i	i	25	i	i	i	-13	i	i
[17] CN1C(C(=O)Nc2cccc(O)c2)=CC(c2cccs2)=NS1(=O)=O
→ i	i	i	0	i	i	i	-16	i	i
[18] C=CCn1c(CCNC(=O)c2ccccc2F)nnc1SCc1nc2ccccc2c(=O)[nH]1
→ i	i	i	10	i	i	i	-7	i	i
[19] CCN1/C(=C/C(C)=O)Sc2ccc(OC)cc21
→ i	i	i	1	i	i	i	-16	i	i
[20] O=C(CNCc1ccccc1Cl)NCc1ccco1
→ i	i	i	4	i	i	i	-3	i	i
[21] COc1ccc(C(=O)c2ccc(Cl)cc2)cc1
→ i	i	i	-2	i	i	i	-9	i	i
[22] COc1ccc2c(c1)c1ncn(CCc3ccccc3)c(=O)c1n2C
→ i	i	i	-3	i	i	i	-8	i	i
[23] CCc1nonc1NC(=O)c1oc2ccccc2c1C
→ i	i	i	1	i	i	i	-11	i	i
[24] O=c1c(O[C@@H]2O[C@H](CO)[C@@H](O)[C@H](O)[C@H]2O)c(-c2ccc(O)cc2)oc2cc(O)cc(O)c12
→ x	x	x	x	i	x	x	x	x	x
[25] Cc1ccc(-c2csc3ncnc(Nc4ccc(C(=O)O)cc4)c23)cc1
→ i	i	i	3	i	i	i	-10	i	i
[26] COc1ccc(N2CC(C(=O)Nc3nc4ccccc4s3)CC2=O)cc1 (stereo not drawn)
→ i	i	i	4	i	i	i	-15	i	i
[27] COC(=O)c1ccc(NC(=O)C2CCCN2S(=O)(=O)c2ccc(C)cc2)cc1 (stereo not drawn)
→ i	i	i	2	i	i	i	-8	i	i
[28] CCOC(=O)N1CCN(C(=O)c2ccc3c(c2)NC(=O)/C(=C/c2ccccc2)S3)CC1
→ i	i	i	-15	i	i	i	-4	i	i
[29] OC(CN1CCc2ccccc2C1)c1ccccc1 (stereo not drawn)
→ i	i	i	-4	i	i	i	-17	i	i
[30] CCOC(=O)c1cccc2c1-c1ccccc1/C2=N/O
→ i	i	i	-3	i	i	i	-7	i	i

(cont.)
Every second line gives: TRPC4 agonist	KCNK9 block	TRPC4 inh	Platelet DG rel	KCNK3 block	KCNQ1 pot	PolyA inh	hERG protect	TRPC4 PAM	KCNQ1 inh
[31] Cc1cccc(-c2cc(C(=O)Nc3ccc4c(c3)OCCO4)c3ccccc3n2)c1
→ i	i	i	2	i	i	i	-10	i	9*
[32] CN(C)CCCNc1cc(Cl)c(S(=O)(=O)N2CCCCC2)cc1C(=O)O
→ x	x	x	x	i	x	x	x	x	x
[33] O=C(Nc1ccc2nc(-c3cccs3)[nH]c2c1)c1cccs1
→ i	-10*	i	7	i	i	i	-7	i	i
[34] S=C(NCc1ccco1)N/N=C/c1ccccc1Cl
→ i	i	i	2	i	i	i	-2	i	i
[35] CC(Oc1ccc2c(c1)c1ccnc3c4ccccc4c(=O)n2c13)C(=O)NCCN1CCOCC1 (stereo not drawn)
→ i	i	i	2	i	i	i	-7	i	i
[36] O=C(COc1ccccc1Cl)Nc1nc(-c2ccncc2)cs1
→ x	x	x	x	i	x	x	x	x	x
[37] Cc1cc2n(n1)C(c1ccco1)Nc1ccccc1-2 (stereo not drawn)
→ i	i	i	4	i	i	i	-4	i	i
[38] Cc1ccc(OCc2nnc(SCC(=O)Nc3cc(C)on3)n2C)cc1
→ i	i	i	9	i	i	i	-9	i	i
[39] O=Nc1c2nc3ccccc3n(O)c-2c2ccccc12
→ i	i	i	0	i	i	i	-19	i	i
[40] C=CCNc1ncnc2c1cnn2-c1ccc(OC)cc1
→ i	i	i	8	i	i	i	-8	i	i
[41] COc1ccc(N2CC(C(=O)Nc3nc4ccc(F)cc4s3)CC2=O)c(OC)c1 (stereo not drawn)
→ i	i	i	25	i	i	i	-22	i	i
[42] COc1ccc(OC)c(Nc2ccc(Nc3cc(OC)ccc3OC)nn2)c1
→ i	i	i	5	i	i	i	-3	i	i
[43] COC1(C)CC2C(CC1OC(=O)c1cc([N+](=O)[O-])cc([N+](=O)[O-])c1)C2(C)C (stereo not drawn)
→ i	i	i	3	i	i	i	-12	i	i
[44] O=C1Nc2c(c(=O)[nH]c(=O)n2-c2ccccc2)C1(Nc1ncccn1)C(F)(F)F (stereo not drawn)
→ i	i	i	3	i	i	i	-3	i	i
[45] Cc1cccc(-n2c(=O)c3ccccc3n3c(=S)[nH]nc23)c1C
→ i	i	i	5	i	i	i	-6	i	i
[46] Cc1ccc(N2CC(C(=O)Nc3nc4ccc(S(C)(=O)=O)cc4s3)CC2=O)cc1 (stereo not drawn)
→ i	i	i	8	i	i	i	-2	i	i
[47] Cc1ccc(-c2nn3c(C)nnc3s2)cc1NCc1c(F)cccc1Cl
→ i	i	i	-3	i	i	i	1	i	i
[48] O=C1OC(c2ccc(Br)cc2)=N/C1=C\c1ccco1
→ i	i	i	4	i	i	i	-4	i	i
[49] COc1ccc(-c2cc(=O)[nH]c(NCc3ccccc3)n2)cc1
→ i	i	x	25	i	i	i	0	i	i
[50] CSc1ccc(-c2nc(CN(C)C3CCOC3)c(C)o2)cc1 (stereo not drawn)
→ i	i	i	3	i	i	i	1	i	i
[51] N#Cc1c(NCCCO)nc(-c2ccco2)c2c1CCCC2
→ i	i	i	-6	i	i	i	-12	i	i
[52] COc1cccc(Nc2ncnc3nc[nH]c23)c1
→ i	i	i	8	i	i	i	-7	i	i
[53] COc1ccc(OCCNC(=O)CSc2ccc(C(F)(F)F)cc2[N+](=O)[O-])cc1
→ i	i	i	16	i	i	i	-5	i	i
[54] CCn1c(SCC(=O)N(C(C)C)C(C)C)nnc1-c1cc2ccccc2cc1O
→ i	i	i	3	i	i	i	-10	i	i
[55] COc1cccc(OC)c1OCCOCCn1cnc2ccccc2c1=O
→ i	i	x	5	i	i	i	-9	i	i
[56] CCOc1ccccc1NC(=O)c1cccc(N2C(=O)CCC2=O)c1
→ i	i	i	-3	i	i	i	0	i	i
[57] Cc1sc2ncnc(SCC(=O)N3CCC(c4noc5ccc(F)cc45)CC3)c2c1C
→ i	i	i	-5	i	i	i	-13	i	i
[58] O=S(=O)(Nc1ccc2c(c1)OCCO2)c1ccc(F)cc1
→ i	i	i	1	i	i	i	-12	i	i
[59] Clc1ccccc1-c1nnc2sc(C3COc4ccccc4O3)nn12 (stereo not drawn)
→ x	x	x	x	i	x	x	x	x	x
[60] COC(=O)CSc1nc(NC(C)=O)nc(C)c1Br
→ i	i	i	7	i	i	i	-10	i	i
[61] O=C(c1ccc(O)cc1)c1ccc(C(=O)O)c(C(=O)O)c1
→ i	i	i	0	i	i	i	-15	i	i
[62] Cc1ccc(-n2c3c(c(=O)[nH]c2=O)C(NS(=O)(=O)c2ccc(C)cc2)(C(F)(F)F)C(=O)N3)cc1 (stereo not drawn)
→ i	i	i	1	i	i	i	1	i	i

Not all compounds are listed. The share of hits here may be higher or lower than overall.
